# Screens as filed in PubChem BioAssay.
# HCMV NEC inh – inhibitors of HCMV UL50-UL53 interaction, biochemical, HTRF | AID 1918969, 2023 | inhibition, % (concentration not given with the values) | normalized percent inhibition | HCMV UL50-UL53 nuclear egress complex (human cytomegalovirus) | 190,000 tested, 0.15% active;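 active = both replicates at 50% or more, plus weaker picks with an unusually low signal ratio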;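 also: stock transfer was 100 nL into about 20 µL; 0% = negative control wells and 100% = wells with untagged competitor protein; inactives centre near -12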
# Sa growth inh – S. aureus growth inhibition at 42 and 30 °C, primary screen, LtaS inhibitor project, RN4220, two temperatures; OD600, 20 h, 42 °C; active compounds read low; relative growth, % (test concentration not listed); 170,000 tested, 0.53% active;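 active = growth at 42 °C up to 50% and 20 or more points under that at 30 °C, or under 10% at both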;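 also: 300 nL library stock went into each well; scaled to the means of positive and negative controls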
# GIV-Gai inh – inhibitors of GIV peptide binding to Galpha-i3, primary screen, biochemical, fluorescence polarization, FITC-GIV GBA peptide, rat Galphai3. Guanine nucleotide-binding protein G(i) subunit alpha-3 (Rattus norvegicus), P08753. 90 min; active compounds read low; scaled: aluminum fluoride 0%, vehicle 100%. percent of control (FP), % (test concentration not listed). 210,000 tested, 0.42% active;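 active = replicate mean at 85% of control or lower, very high polarization wells dropped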;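 also: lower values mean more displacement of the GIV peptide from Galpha-i3; wells of about 15 µL received 100 nL stock; the first replicate is given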
# Target sequence (P08753 whole entry, looked up): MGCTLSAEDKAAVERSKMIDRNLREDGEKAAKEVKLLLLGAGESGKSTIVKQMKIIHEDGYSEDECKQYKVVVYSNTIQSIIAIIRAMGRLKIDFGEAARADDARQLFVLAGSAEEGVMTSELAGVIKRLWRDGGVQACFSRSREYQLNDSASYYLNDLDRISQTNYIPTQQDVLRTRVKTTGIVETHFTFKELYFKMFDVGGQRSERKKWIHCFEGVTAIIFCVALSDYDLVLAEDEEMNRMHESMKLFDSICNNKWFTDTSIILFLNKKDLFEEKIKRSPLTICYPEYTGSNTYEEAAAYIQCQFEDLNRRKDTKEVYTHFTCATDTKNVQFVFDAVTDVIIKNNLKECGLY
# Sa growth inh second temp – also measured in Sa growth inh; calls as there; relative growth, %; measured here: growth at 30 °C;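 optical density after 20 h as mean of two plates; 100% = untreated growth and lower means inhibition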
# An asterisk follows results filed as active; . = not tested or not shown; & = joins results of further samples.
SMILES,HCMV NEC inh,Sa growth inh,Sa growth inh second temp,GIV-Gai inh
Cc1nn(-c2ccccc2)nc1CNS(=O)(=O)c1c(C)noc1C,-44.8,93.2,86.7,105.4
Cn1c(=NC(=O)Cc2cccs2)sc2cc(F)ccc21,-14.6,103.5,83.6,.
CCCCNC(=O)C1CCN(c2ccc(Cl)cc2)C1=O (stereo not drawn),-18.5,.,.,102.0
COc1ccccc1OCCSc1nc2ccccc2n1CCO,19.8,.,.,107.7
Cc1noc(-c2ccccc2OCC(=O)Nc2nccs2)n1,-32.0,.,.,104.6
Cc1cc(/C=N/NS(=O)(=O)c2cccc(C(F)(F)F)c2)no1,-2.9,99.6,100.7,97.9
CC(C)(C)c1cc(C(=O)/C(C#N)=C/Nc2ccccc2)no1,-12.5,105.3,99.6,102.6
O=C(Nc1ccccc1)C1CCCN1C(=O)Nc1ccc(F)cc1 (stereo not drawn),0.9,62.0,43.0,105.0
O=C(CN1C(=O)C2CCCCN2c2ccc(C(=O)N3CCCCC3)cc21)NCCC1=CCCCC1 (stereo not drawn),-34.1,.,.,104.4
O=C1NC(=S)S/C1=C\c1c(NCc2ccco2)nc2ccccn2c1=O,.,115.6,72.1,322.7
C=CCn1c(=O)c2c(ncn2C)n(C)c1=O,-13.0,99.9,95.4,102.9
Cc1ccccc1C(=O)Nc1ccc(-n2c(C)nc3ncccc3c2=O)cc1,-9.1,.,.,94.6
CCOC(=O)C1CCCN(C(=O)c2cccc(NC(=O)c3nsc4ccccc34)c2)C1 (stereo not drawn),.,122.5,90.8,110.8
COc1ccc(-c2nc3sc(CCNS(=O)(=O)c4ccccc4)c(C)n3n2)cc1,.,112.2,87.2,97.3
O=c1c(=O)n(-c2cccc(Cl)c2)ccn1Cc1cccc(F)c1,-22.8,84.8,78.2,97.9
CC1CCC(NC(=O)c2ccc3c(c2)NC(=O)CS3)CC1 (stereo not drawn),1.4,99.8,84.0,104.5
O=C(Nc1cccc(C(=O)OCc2cc(=O)n3c4c(sc3n2)CCCC4)c1)c1cccc(Cl)c1,.,93.1,84.0,96.6
Oc1ccc(Oc2ccc(Oc3ccc(O)cc3)cc2)cc1,0.5,70.9,76.0,114.5
CCc1ccc(C2c3c(-c4cc(C)ccc4O)n[nH]c3C(=O)N2Cc2cccnc2)cc1 (stereo not drawn),-32.4&-21.4,107.4,84.9,99.3&106.4
O=C(c1ccc2c(=O)n3c(nc2c1)CCCCC3)N1CCCCCC1,8.8,100.4,96.9,103.7

# 3 entries from above, sorted by the value under GIV-Gai inh, smallest number first:
Molecule	GIV-Gai inh
O=C(Nc1cccc(C(=O)OCc2cc(=O)n3c4c(sc3n2)CCCC4)c1)c1cccc(Cl)c1	96.6
COc1ccc(-c2nc3sc(CCNS(=O)(=O)c4ccccc4)c(C)n3n2)cc1	97.3
CCOC(=O)C1CCCN(C(=O)c2cccc(NC(=O)c3nsc4ccccc34)c2)C1 (stereo not drawn)	110.8

# More compounds.
SMILES,HCMV NEC inh,Sa growth inh,Sa growth inh second temp,GIV-Gai inh
CCn1c2ccccc2c2cc(C=Nc3ccc(S(N)(=O)=O)cc3)ccc21,-1.1,58.2,56.3,102.1
CC(C#N)OC(=O)c1ccccc1Oc1ccccc1 (stereo not drawn),3.2,115.1,101.2,.
COc1cc2c(cc1OC)C(C)N(C(=O)CN1C(=O)CCc3ccccc31)CC2 (stereo not drawn),.,114.8,81.2,100.0
Cc1ccc(-n2nnc3c(sc4nc(C)c(C)cc43)c2=O)cc1Cl,-29.8,106.0,95.4,104.9
Cc1nc(N2CCC(C(=O)NC(C)C)CC2)c2c(C)c(C)oc2n1,8.6,.,.,103.7
Cc1nc2ccc(S(=O)(=O)N(C)CC(=O)NC3CCN(Cc4ccccc4)CC3)cc2s1,5.0,93.8,88.1,98.5
N#Cc1ccc(Oc2ncnc3c2oc2ccccc23)cc1,1.7,103.3,95.3,.
O=C(Nc1ccc(S(=O)(=O)N2CCOCC2)cc1)c1ccc(Br)s1,0.6,105.6,94.5,.
O=C(Cc1cn2ccsc2n1)OCC(=O)c1ccccc1,-34.4,94.2,87.4,.
O=C(N/N=C\c1c(Cl)cccc1Cl)c1nc(CS(=O)(=O)c2ccc(Cl)cc2)no1,-8.9,100.1,25.3,113.5
CC(=O)Nc1ccc(NC(=S)NC(=O)C2CCCC2)cc1,0.5,104.7,103.5,105.2
Fc1ccccc1N1CCN(c2ncc3c(n2)CCN(Cc2ccc4c(c2)OCCO4)C3)CC1,5.2,.,.,109.3
COC(=O)c1cc2c(N)c(C(=O)c3cc(C#N)c(SC)nc3C)sc2nc1C,8.6,112.7,98.5,.
Clc1ccc(Oc2nc(-c3ccccc3)ns2)cc1,-9.4,99.3,95.1,102.0
N#Cc1cc2c(nc1S(=O)Cc1ccc(Cl)cc1)CCCC2 (stereo not drawn),.,91.4,104.4,104.0
CCCNc1cc(C)nc2nc(-c3ccc(OC)cc3)nn12,-15.2&-20.0,82.2,80.7,101.1&105.2
CN(C(=O)CN1C(=O)c2ccccc2C1=O)C1CCCCC1,-8.6,104.0,87.7,99.2
COc1ccccc1NC(=O)C(C)OC(=O)C1COc2ccccc2O1 (stereo not drawn),11.7,101.3,97.5,.
CC(C)(C)NC(=O)c1nn2c(C(F)(F)F)cc(-c3ccccc3)nc2c1Br,-3.9,.,.,99.3
CC(C)NC(=O)CCc1nnc2n(C)c(=O)c3sccc3n12,-1.9,.,.,99.6
CC1(C)C(=O)Nc2ccccc2N1C(=O)COc1ccc(S(=O)(=O)N2CCOCC2)cc1Cl,-8.6,95.9,91.0,.
O=C1Nc2cc(C(=O)N3CCc4ccccc4C3)ccc2Sc2ccccc21,.,74.0,57.4,105.4
Clc1ccc(-c2nc3ncccn3c2Nc2ccc3c(c2)OCCO3)cc1,-10.9,110.7,99.2,106.5
COc1ccc(NCN2C(=O)S/C(=C/c3ccc4c(c3)OCO4)C2=O)cc1Cl,-12.0,.,.,108.8
Cc1cc(NC(=O)Cn2cnc3c(cnn3-c3ccc(Cl)cc3)c2=O)no1,5.0,101.9,85.7,103.5
CN1CCN(c2nn3c(NC(C)(C)C)c(-c4cccc(F)c4)nc3s2)CC1,-2.9,.,.,93.9
CCOc1ccc(NC(=O)CSc2nnc3scc(-c4ccccc4)n23)cc1,-20.2,87.3,52.1,102.4
COc1cc(/C=C/C(=O)OCc2cc(=O)n3ccsc3n2)ccc1OC(F)F,-19.6,84.5,94.9,.
Cc1nc2sccn2c1-c1csc(Nc2ccc(C(=O)O)cc2)n1,.,117.4,82.9,106.2
CCSc1ncc(Cl)c(C(=O)Nc2cccc(Cl)c2)n1,-5.5,94.8,76.7,103.9
COC(=O)c1ccc2c(=O)n(CCN3CCOCC3)c(SCC(=O)c3ccccc3)nc2c1,2.5,93.5,84.2,97.8
CN(C)S(=O)(=O)c1ccc(C(=O)OCC(=O)c2csc(N3CCCCC3)n2)cc1,-19.0,70.7,91.8,.
O=c1cc(-c2ccccc2)oc2c(O)c(O)ccc12,-49.6,.,.,102.6
Cc1nnc2c(SC(C)C)nc3ccccc3n12,-61.0,96.4,78.9,104.0
Cc1ccc2[nH]c(=O)c(-[n+]3ccccc3)c(-c3ccccc3)c2c1,.,92.8,85.1,101.5
CCc1nc2ccc(N)cc2[nH]1,-7.4,104.3,88.4,104.2
CCOC(=O)c1cccc(NC(=O)NC2COc3ccccc3C2)c1 (stereo not drawn),.,74.5,88.8,101.7
C=CCNC(=O)c1cc2nc(C3CC3)cc(C(F)F)n2n1,-14.0,107.4,99.4,110.0
CN(C)c1n[nH]c(N(C)C)n1,-3.6,.,.,93.3
CCOC(=O)c1c(C)[nH]c(C(=O)N2CCC(C(C)C(=O)NCc3ccc(OCC)cc3)CC2)c1C (stereo not drawn),6.0,.,.,106.6
COc1ccc(CCNS(=O)(=O)c2csc(C(N)=O)c2)cc1OC,-8.6,.,.,105.3
CN(C)c1nc2n(c(=O)n1)CCS2,-9.0,92.3,83.5,99.9
CCN(CC)c1ccc(NC(=O)CSc2nc(-c3cccs3)cc(C(F)(F)F)n2)cc1,20.4,119.0,104.9,106.0
C=CCN1CC(c2nc3ccccc3n2CC(O)COc2c(C)cccc2C)CC1=O (stereo not drawn),13.0,.,.,103.7
CCc1cc(C(=O)NC(C)c2ccccc2)no1 (stereo not drawn),-18.6,96.9,88.6,101.4
Cn1c(=O)c(=O)n(C)c2cc(Oc3ccccc3)c(NC(=O)C(C)(C)C)cc21,-16.8,.,.,100.2
C=C(C)Cn1c(CCCNC(=O)c2ccc(F)cc2)nc2ccccc21,.,109.1,69.6,100.5
O=C(CSc1cccc[n+]1[O-])c1ccco1,-4.3,95.3,82.2,.
CC(C)C(C(=O)O)N1C(=O)/C(=C/c2ccccn2)SC1=S (stereo not drawn),-94.6,94.8,54.1,89.1
COc1cccc(N2C(=O)CC(SCC(=O)Nc3ccc4ccccc4c3)C2=O)c1 (stereo not drawn),.,75.9,62.1,101.9

# (next part)
SMILES,HCMV NEC inh,Sa growth inh,Sa growth inh second temp,GIV-Gai inh
CCN(c1cccc(C)c1)c1ncnc2c1cnn2-c1ccc(C)cc1C,.,84.6,76.4,104.0
Cc1cc2nc(-c3cccc(NC(=O)COc4ccc(C(C)C)cc4)c3)oc2cc1C,7.4,115.7,91.5,110.0
Nc1cc(=O)[nH]c(SCC(=O)c2cccs2)n1,.,90.3,85.2,102.4
CC(C)CSc1nnc(Cn2cnc3ccccc32)n1-c1ccccc1Cl,9.0,127.6,90.8,.
Cc1cc(NC(=O)c2cc(-c3ccc(F)cc3)no2)nn1CC(=O)N1CCOCC1,5.1,115.4,79.2,105.8
O=C1Nc2ccccc2/C1=C/c1ccc(CN2C(=O)c3ccccc3C2=O)o1,-35.1,86.3,81.8,99.3
Brc1ccc2nc(-c3ccco3)c(Nc3ccccc3)n2c1,-28.0,78.8,81.2,97.2
CCn1nc(C)c(Br)c1-c1nc(-c2cccc(C(F)(F)F)c2)no1,-2.5,103.0,94.9,109.2
O=c1o[nH]c(-c2ccccc2)c1C=Nc1ccc(Cl)cc1,-6.8,.,.,107.2
CC(C)Cn1c(=O)c2sccc2n2c(CCC(=O)N3CCN(c4ccccn4)CC3)nnc12,-13.6,.,.,98.7
CCC1=[N+]([O-])C(C)(C)C(c2ccccc2)=[N+]1[O-],-33.8,110.8,100.1,104.4
O=C(CC(C(=O)O)N1CCNCC1)Nc1ccccc1Cl (stereo not drawn),-10.0,96.2,91.4,104.0
COC(=O)Cn1c(C(F)(F)F)nc2ccccc21,-16.4,.,.,99.8
O=C1CC(c2nnc(Cc3cccc(Cl)c3)o2)CN1c1ccccc1 (stereo not drawn),5.0,109.8,102.8,105.2
CC(C)(C)CC(C)(C)NC(=O)Cc1cccs1,-16.9,101.3,96.0,105.3
CN(CC(=O)N1CCCC1c1nc2ccccc2s1)S(=O)(=O)c1ccc(Cl)s1 (stereo not drawn),-24.6,99.0,96.2,.
CCOC(=O)c1ccc(NC(=O)CC#N)cc1,11.8,103.3,96.2,.
COc1ccc(C2CC(=O)C3=C(C2)Nc2onc(C)c2C3c2cccc(O)c2)cc1OC (stereo not drawn),-3.3,.,.,100.6
COc1cccc(Nc2ncc3c(n2)CCNC3)c1,5.6,99.0,99.8,108.3

# Structural class, the entries above with an aryl thioether with sulfur outside any ring.
SMILES,HCMV NEC inh,Sa growth inh,Sa growth inh second temp,GIV-Gai inh
COc1ccccc1OCCSc1nc2ccccc2n1CCO,19.8,.,.,107.7
COC(=O)c1cc2c(N)c(C(=O)c3cc(C#N)c(SC)nc3C)sc2nc1C,8.6,112.7,98.5,.
CCOc1ccc(NC(=O)CSc2nnc3scc(-c4ccccc4)n23)cc1,-20.2,87.3,52.1,102.4
CCSc1ncc(Cl)c(C(=O)Nc2cccc(Cl)c2)n1,-5.5,94.8,76.7,103.9
COC(=O)c1ccc2c(=O)n(CCN3CCOCC3)c(SCC(=O)c3ccccc3)nc2c1,2.5,93.5,84.2,97.8
Cc1nnc2c(SC(C)C)nc3ccccc3n12,-61.0,96.4,78.9,104.0
CCN(CC)c1ccc(NC(=O)CSc2nc(-c3cccs3)cc(C(F)(F)F)n2)cc1,20.4,119.0,104.9,106.0
O=C(CSc1cccc[n+]1[O-])c1ccco1,-4.3,95.3,82.2,.
Nc1cc(=O)[nH]c(SCC(=O)c2cccs2)n1,.,90.3,85.2,102.4
CC(C)CSc1nnc(Cn2cnc3ccccc32)n1-c1ccccc1Cl,9.0,127.6,90.8,.
